Screening data from PubChem.
RE007 growth inh – qHTS Assay for Inhibitors of the HIV-1 protein Vpr; S. pombe RE007 Vpr strain, BacTiter-Glo ATP luminescence, 24 h; control for the full effect not named in the record; Potency, µM (series often up to 92.2 µM), without a hit: at the top dose activity change, negative = less growth; 0.21% of 360,000 active; AID 651644, 2012; active = well fitted falling curve with a large enough effect; inconclusive = small, poorly fitted or top-dose-only effect; inactive = no such curve, though single readings can be large or run the other way;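 note: % is set by controls: 0 for no effect and ±100 for the full control effect; nearly all actives have a fitted effect of over 50% in size; the assay follows cell death caused by Vpr and the record does not say whether a fall means rescue or toxicity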
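Fission yeast RE007 carrying one integrated HIV-1 vpr copy, seeded at OD 0.01 in PMG+AL medium with 23 nL pinned compound. Grown 24 h at 30 degrees; viability read by BacTiter-Glo luminescence after 5 min.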
Lassa entry inh – qHTS for Inhibitors of binding or entry into cells for Lassa Virus; Lassa virus pseudotype entry inhibition, cell reporter; control for the full effect not named in the record; Potency, µM (titrated, usually from 37.9 µM), inactives show at the top dose activity change, negative = inhibition, actives largely listed as inhibitors; 1.2% of 300,000 active; active means well fitted inhibition curve with a large enough effect; inconclusive means small, poorly fitted or top-dose-only effect, or effect the other way; inactive means flat fitted curve, though single readings scatter; tested in HEK293 cells; note: % is set by controls: 0 for no effect and ±100 for the full control effect; nearly all actives have a fitted effect of over 50% in size; luciferase read-out
Marburg entry inh – qHTS for inhibitors of binding or entry into cells for Marburg Virus; Marburg virus pseudotyped entry inhibition, cell reporter; control for the full effect not named in the record; about a third of the inactives were read at about 46 µM; Potency, µM (top dose mostly 37.8 µM), for the others: at the top dose activity change, negative = inhibition, hits mostly inhibitors; 1.8% of 300,000 active; AID 540276, 2011; active = well fitted inhibition curve with a large enough effect; inconclusive = small, poorly fitted or top-dose-only effect, or effect the other way; inactive = flat fitted curve, though single readings scatter; tested in HEK293 cells; about a fifth of its hits are not listed in these tables; note: % is set by controls: 0 for no effect and ±100 for the full control effect; luciferase read-out
NS1 function inh – qHTS Assay for Inhibitors of Influenza NS1 Protein Function | Potency, µM (series often up to 46.1 µM), for the others: top-dose activity, positive = more growth | S. cerevisiae slowed by influenza A NS1, growth recovery by OD600 | AID 2326, 2010 | 0.4% of 270,000 active; note: actives are rising curves; nearly all actives have a fitted effect of over 50% in size
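Read-out: OD600 growth recovery of NS1-expressing budding yeast. Cells grown overnight at 30C in -URA glucose medium, washed, resuspended and diluted 1:100 in 2% galactose assay medium, pH 6.0. Same strain lacking NS1 served as positive control.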
SARS PLP yeast – qHTS of Yeast-based Assay for SARS-CoV PLP. Potency, µM (titrated, usually from 32.9 µM), without a hit: top-dose activity, positive = growth rescue. 0.19% of 330,000 active. S. cerevisiae expressing SARS-CoV PLpro, growth rescue; control for the full effect not named in the record. AID 485353, 2010; note: 0% is about no effect; nearly all actives have a fitted effect of over 55% in size; growth read by luminescence after 48 h
Cruzain inh Det – qHTS Assay for Promiscuous and Specific Inhibitors of Cruzain (with detergent). Cruzipain (Trypanosoma cruzi), P25779. purified cruzain, Z-FR-AMC fluorescence, 0.01% Triton. Potency, µM, without a hit: max response, negative = inhibition, hits mostly inhibitors. 0.43% of 200,000 active; active = well fitted curve in the direction sought with a large enough effect; inconclusive = small, poorly fitted or top-dose-only effect, or another doubt; inactive = no such curve, though single readings can be large; an effect the other way counts as inactive or inconclusive;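 note: plate controls were neutral wells for no effect and buffer without enzyme for full effect; nearly all actives have a fitted effect of over 40% in size; top concentration of the series not given in the record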
Target sequence (P25779 123-467 limits assumed): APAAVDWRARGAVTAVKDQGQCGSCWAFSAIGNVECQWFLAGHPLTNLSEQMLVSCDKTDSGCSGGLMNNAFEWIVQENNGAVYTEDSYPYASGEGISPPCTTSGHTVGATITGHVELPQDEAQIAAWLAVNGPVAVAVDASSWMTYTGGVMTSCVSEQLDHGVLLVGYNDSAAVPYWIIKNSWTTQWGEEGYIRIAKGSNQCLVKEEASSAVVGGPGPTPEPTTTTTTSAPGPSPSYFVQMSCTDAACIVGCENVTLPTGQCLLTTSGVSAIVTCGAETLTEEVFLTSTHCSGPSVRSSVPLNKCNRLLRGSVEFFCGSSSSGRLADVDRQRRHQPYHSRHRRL
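15 min RT preincubation of 1.5 nM cruzain with compound, then 2 uM Z-FR-AMC added; kinetic AMC fluorescence, 60 s delta. Triton X-100 0.01%, pH 5.5.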
StopGo reporter – High Throughput Screening for Foot and Mouth Disease Virus Antivirals | human cells with a luciferase reporter of 2A StopGo recoding; control for the full effect not named in the record | Potency, µM (series often up to 57.9 µM), for the others: at the highest dose signal change, negative = less light | 1.2% of 410,000 active; active = well fitted falling curve with a large enough effect; inconclusive = small, poorly fitted or top-dose-only effect; inactive = no such curve, though single readings can be large or run the other way; tested in HEK293T cells; note: % is set by controls: 0 for no effect and ±100 for the full control effect; nearly all actives have a fitted effect of over 45% in size; luciferase light after 4 h
Cruzain noTriton – qHTS Assay for Promiscuous and Specific Inhibitors of Cruzain (without detergent); Cruzipain (Trypanosoma cruzi), P25779; Potency, µM, for the others: max response, negative = inhibition, actives largely listed as inhibitors; 2.3% of 200,000 active; purified cruzain, Z-FR-AMC fluorescence, no detergent; AID 1476, 2009; active = well fitted curve in the direction sought with a large enough effect; inconclusive = small, poorly fitted or top-dose-only effect, or another doubt; inactive = no such curve, though single readings can be large; an effect the other way counts as inactive or inconclusive;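 note: plate controls were enzyme without inhibitor for no effect and buffer without enzyme for full effect; nearly all actives have a fitted effect of over 40% in size; top concentration of the series not given in the record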
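Detergent-free condition (0.00005% Triton X-100) in acetate buffer pH 5.5 with DTT. 1.5 nM enzyme and compound were pre-mixed 15 min, then 2 uM Z-FR-AMC substrate added; reaction progress from fluorescence change between first and third reads (60 s).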
* marks the source's active call; other numbers are inactive results; ? = inconclusive; · = not tested or not shown; & = joins results of further samples; [ ] = remark or other dose. Unless noted, calls come from the whole dose curve; as a rule, active means well fitted rising curve with a large enough effect; inconclusive means small, poorly fitted or top-dose-only effect; inactive means no such curve, though single readings can be large or run the other way. Potency is the fitted concentration of half-maximal effect.

SMILES	RE007 growth inh	Lassa entry inh	Marburg entry inh	NS1 function inh	SARS PLP yeast	Cruzain inh Det	StopGo reporter	Cruzain noTriton
COc1ccc(CC(=O)C2C(=O)N(C)c3ccccc32)cc1OC (stereo unspecified)	18%	-6%	5%	·	·	·	-22%	·
Cc1ccc2cccc(OCc3ccccc3)c2n1	?	6%	0%[14.2 µM]	-2%	0%	·	-14%	·
COc1cccc(-c2ccc(NC(=O)C3CCCN(CCCn4nc(C)cc4C)C3)cc2)c1 (stereo unspecified)	-1%	·	·	-4%	-3%	·	-5%	·
COc1cc(S(=O)(=O)Nc2c(C)cc(C)cc2C)ccc1Cl	5%	10%	-7%	-21%	18%	-10%	-11%	4%
O=C(O)CSc1ncnc2scc(-c3ccc(Br)cc3)c12	26%	16%	-14%[46.1 µM]	0%	1%	·	-18%	·
Cc1ccc(S(=O)(=O)CCNC(=O)Cc2ccc(Cl)cc2)cc1	9%	-1%	7%[14.2 µM]	·	0%	·	-2%	·
CC(C)c1ccc(NC(=O)C2CCN(S(=O)(=O)c3cccc4nsnc34)CC2)cc1	·	9%[46.1 µM]	?	·	·	-1.0%	0%	-5%
CCOC(=O)c1cccc(NC(=O)CSc2nc3cc4ccccc4cc3[nH]2)c1	·	-12%[46.1 µM]	4%[46.1 µM]	·	·	-7.1%	-19%	?
CN1C(=O)c2cccc(N(C)C)c2C1=O	-29%	?	5%	2%	3%	-1.0%	-6%	-1%
COc1ccc(NC(=O)c2ccccc2NC(=O)c2ccco2)c(OC)c1	7%	25%	3%	2%	9%	-4.0%	14%	26%
O=C(O)C1CC=CCC1C(=O)NC12CC3CC(CC(C3)C1)C2 (stereo unspecified)	6%	-25%	-4%	-3%	-1%	-0.5%	5%	2%
O=C(Cc1ccccc1Cl)N/N=C/c1cccnc1	1%	·	·	-4%	-5%	·	-24%	·
O=C(Cn1nc(C(=O)O)c2ccccc2c1=O)Nc1cc(S(=O)(=O)N2CCOCC2)ccc1Cl	0%	-7%[46.1 µM]	18%[46.1 µM]	·	-3%	·	?	·
CCOc1ccc(C(=O)NC(=S)Nc2ccc(NC(=O)c3ccco3)cc2)cc1[N+](=O)[O-]	-4%	-20%	-4%	-1%	-8%	4.9%	-16%	-5%
Cc1ccc(-n2ncc3c(NCc4ccco4)ncnc32)cc1C	-10%	20%	5%[46.1 µM]	·	-5%	·	47%[activator]	·
O=C(NCc1ccco1)/C(=C/c1ccc(Cl)cc1)NC(=O)c1ccco1	2%	-18%[46.1 µM]	15%[46.1 µM]	11%	1%	·	-12%	·
CN(C)CCCNc1oc(-c2ccc(Cl)cc2)nc1C#N	4%	?	-3%	1%&-2%	2%	-20%	13%	?
CC1(C)Cc2c(sc(NC(=O)c3ccco3)c2C(=O)O)CO1	0%	?	-53%	-4%	-6%	-3.0%	32%	7%
CCOC(=O)C1CCCN(C(=O)c2ccc(S(=O)(=O)N3CCCC3)cc2)C1 (stereo unspecified)	-1%	2%	-21%	·	-5%	·	-19%	·
Cc1ccc(C2CC(=O)c3cnn(-c4nc(C)cc(C)n4)c3C2)cc1 (stereo unspecified)	22%	-2%	?	2%	?	-1.7%	-24%	16%
O=C1CC(c2ccccc2)Oc2cc(O)cc(O)c21 (stereo unspecified)	-11%	·	·	-51%	-2%	·	33%[activator]	·
Cc1ccc(NC(=O)c2cnccn2)cc1C	-27%	·	·	-8%	-7%	·	76%[activator]	·
COc1ccccc1C(=O)OCc1cc(=O)n2c(C)csc2n1	·	21%[46.1 µM]	·	·	·	-2.5%	52%[activator]	-11%
CC(c1cccs1)N(C(=O)Nc1ccccc1)C1CCCCC1 (stereo unspecified)	5%	16%	-22%	-2%	1%	0.3%	26%	-11%
CCn1c(=O)n(C)c2c(=O)n(C)c(=O)n(C)c21	9%	2%[46.1 µM]	-7%[46.1 µM]	·	·	·	-4%	·
O=S1(=O)C=CC(Nc2cccc(Cl)c2)C1 (stereo unspecified)	16%	-18%	-29%	?	5%	1.5%	·	-2%
COc1ccc(/C=C2/CCCC(CN(C)C)C2=O)cc1 (stereo unspecified)	17%	-13%	-16%	·	·	·	-13%	·
O=C(NCc1ccco1)Nc1ccc(Br)cc1Cl	1%	13%	-16%	-39%	-11%	-4.4%	44%[activator]	-18%
Cc1cc(N2CCN(C3CCCC3)CC2)n2ncc(-c3ccccc3)c2n1	·	·	-4%	12%	4%	3.0%	·	7%
O=C(NCc1ccco1)c1ccccc1O	4%	·	·	-6%	-11%	·	5%	·
Cn1sc(NC(=O)c2ccccc2)nc1=O	3%	29%	30%	-110%	3%	17%	45%[activator]	-5%
CCCCNC(=S)Nc1ccccc1F	-8%	-19%	-8%	11%	5%	4.3%	8%	9%
CCc1ccccc1NC(=O)CSc1nnc(Cn2nnc3ccccc32)n1C	3%	-12%	0%	-8%	13%	-1.0%	·	-10%
COc1ccc(CNC(=O)c2sccc2C)cc1	49%	14%[46.1 µM]	37%[46.1 µM]	-14%	1%	·	12%	·
COC(=O)c1sccc1NC(=O)Nc1ccc(C(C)=O)cc1	-26%	4%[46.1 µM]	13%[46.1 µM]	9%	-3%	·	0%	·
Cc1onc(-c2c(Cl)cccc2Cl)c1C(=O)N1CCN(c2ccccc2)CC1	8%	·	·	-3%	0%	·	?	·
Cc1ccccc1OCc1nc2ccc(S(=O)(=O)N3CCOCC3)cc2[nH]1	0%	-14%	-7%	1%	3%	-0.4%	-1%	-5%
Nc1ncnc2c1ncn2[C@H]1C[C@H](O)[C@@H](COP(=O)(O)O)O1	-24%	-9%	-3%	-4%	12%	3.8%	-7%	13%
Cc1ccccc1C(=O)NN(C)c1nc2ccccc2nc1C(F)(F)F	21%	-25%	?	1%	-4%	6.3%	-26%	?
CCn1cc(C(C)NC(=O)COc2ccc(Cl)cc2C)c(C)n1 (stereo unspecified)	19%	1%	?	-16%	-2%	0.1%	?	21%
COc1ccccc1CNC(=O)c1cc2c(s1)-c1ccc(Cl)cc1SC2	·	23%[46.1 µM]	16%[46.1 µM]	·	·	-4.9%	7%	-12%
CCc1ccc(NC(=S)N(Cc2ccccc2)Cc2ccccn2)cc1	1%	?	?	·	1%	·	-1%	·
CCCn1c(=O)c(/C(N)=N/O)nn(-c2cccc(C(F)(F)F)c2)c1=O	22%	11%	8%	1%	0%	·	-5%	·
CCCN(C(=O)COC(=O)CCOc1ccccc1C)c1c(N)n(Cc2ccccc2)c(=O)[nH]c1=O	5%	·	·	7%	?	·	-11%	·
FC(F)Sc1nc2ccccc2[nH]1	-21%	-2%	0%[14.2 µM]	1%	0%	·	36%[activator]	·
COc1ccc(C2CCCN2C(=S)Nc2ccccc2C)cc1OC (stereo unspecified)	-13%	-1%[46.1 µM]	?	·	4%	·	-20%	·
Cc1ccc(C)c(N2CCN(C(=O)CCS(=O)(=O)c3cc4c(cc3Cl)NC(=O)CO4)CC2)c1	·	13%[46.1 µM]	·	·	·	-4.1%	?	5%
COCCOC(=O)Cn1nnc2sc(-c3ccccc3)cc2c1=O	·	5%[46.1 µM]	-14%[46.1 µM]	·	·	-3.9%	12%	-1%
COCCCNC(=O)c1ccc(S(=O)(=O)c2ccc(Cl)cc2)c(NC(C)=O)c1	-6%	·	·	2%	1%	·	-11%	·
CCc1ccc(CNC(=O)CN2C(=O)CSc3ccc(S(=O)(=O)N4CCOCC4)cc32)cc1	·	2%[46.1 µM]	·	·	·	0.1%	-13%	9%
Additional records follow:
SMILES	RE007 growth inh	Lassa entry inh	Marburg entry inh	NS1 function inh	SARS PLP yeast	Cruzain inh Det	StopGo reporter	Cruzain noTriton
CN(CCC#N)C(=O)COC(=O)c1ccc(CNS(=O)(=O)c2ccc(F)c(Cl)c2)cc1	7%	5%	?	-7%	12%	-4.7%	-16%	-1%
CSc1cc(C)n(-c2ccccc2)c(=S)c1C(C)=O	-2%	-7%	4%	-4%	-8%	-2.7%	-1%	-8%
Cn1c(OCc2cccnc2)nc2c1c(=O)n(Cc1ccc(Br)cc1)c(=O)n2C	-6%	-14%	-22%&-22%	-11%	3%	-0.8%	?	?
N/C(=N\OC(=O)CCC1CCCC1)c1ccc([N+](=O)[O-])cc1	9%	1%	?	·	0%	·	5%	·
Cc1c(Cl)cccc1NC(=O)c1cc(-c2cccc(Cl)c2)on1	·	-18%[46.1 µM]	-1%[46.1 µM]	·	·	1.7%	-3%	-12%
COc1cccc(CC(NC(C)=O)C(=O)NC2CCN(S(=O)(=O)c3ccc(NC(C)=O)cc3)CC2)c1OC (stereo unspecified)	-16%	-2%[46.1 µM]	-7%[46.1 µM]	8%	3%	·	-11%	·
CC(=O)c1nn(-c2ccc(C)cc2)cc1C(=O)c1cccc(Br)c1	11%	24%	?	·	·	·	-4%	·
Cc1nc(-c2cccc(S(=O)(=O)N3CCCCC3)c2)cs1	1%	-26%	?	-7%	-2%	·	4%	·
CCOc1ccc(S(=O)(=O)c2c(C(=O)c3ccc(C)cc3)cnc3cc4c(cc23)OCCO4)cc1	15%	-11%	?	14µM*	-2%	-4.8%	10%	6.3µM*
CC(C)CN(CCCNC(=O)Cn1ncc2c3ccccc3n(C)c2c1=O)CC(C)C	·	17%[46.1 µM]	-4%[46.1 µM]	·	·	-3.7%	-3%	-2%
Cc1cccc(C)c1NC(=O)CNC(=O)c1cccnc1	-10%	19%[46.1 µM]	-16%[46.1 µM]	2%	-3%	·	13%	·
CC(C)CCn1c(Sc2nc3ccccc3s2)nc2c1c(=O)[nH]c(=O)n2C	7%	?	?	-19%	2%	-5.6%	32µM*	?
CC(=O)Nc1ccc(/C=C/c2noc(-c3ccccc3O)n2)cc1	-6%	?	?	-4%	-1%	-2.3%	49%&40%[activator]	-7%
O=C(N1CCOCC1)N1CCN(c2nc(-c3ccc(F)cc3)cs2)CC1	-12%	?	1%	2%	-4%	-3.8%	?	?
CC1CCC(NC(=O)Cn2c(=O)[nH]c3ccsc3c2=O)CC1 (stereo unspecified)	4%	11%	-15%	-2%	1%	1.9%	64%[activator]	4%
CCOc1ccc(-c2cc(N)n(S(=O)(=O)c3ccc(OC)c(OC)c3)n2)cc1	2%	·	1%	7%	2%	-4.3%	-18%	?
